# Ba CapD inh – Bacillus anthracis CapD inhibitors, primary screen, biochemical, fluorescence intensity; CapD gamma-glutamyltranspeptidase (Bacillus anthracis Ames Ancestor); purified CapD enzyme, fluorescence intensity read-out; stronger effect = lower value; some hits fall short of the stated cut; z-score (concentration not given with the values); actives 0.23% (n = 140,000);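 active = z-score under -4 in either of two replicates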;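 also: stock transfer was 100 nL into about 40 µL; score is relative to mean and spread of the plate; one replicate is shown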
# AID504770 – growth inhibition of E. coli YBA685, primary screen, V. cholerae RctB inhibitors | E. coli YBA685 rctB-dependent plasmid, OD600 growth, 3 h; stronger effect = lower value | actives 0.27% (n = 130,000) | z-score (concentration not given with the values);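 active = z-score under -2 on both plates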;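 also: wells of about 30 µL received 100 nL stock; score is relative to mean and SD of the test wells; the first replicate is given; strong numbers were not always called active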
# An asterisk follows results filed as active; nt = no result given. This is a subset, so the mix of outcomes need not match the whole.
Structure,Ba CapD inh,AID504770
COc1ccc(Cc2nc3ccccc3n2C(C)C)cc1,0.08,-0.3
C=CCn1c(SC(C#N)Cc2ccccc2)nnc1C1CCCCC1 (centres undefined),nt,0.25
CC(=O)Oc1ccc(C2C(C(=O)OC3CCCC3)=C(C)NC3=C2C(=O)CC(c2cccs2)C3)cc1 (centres undefined),39,nt
C=CCSc1nnc2c(n1)[nH]c1ccccc12,-0.62,-0.4
C=CCn1c2ccccc2c2nnc(SCC(=O)Nc3nc4ccccc4s3)nc21,-0.32,nt
O=C(Nc1ccc(Cl)cc1)n1ccc(-c2ccc(-n3ccnc3)cc2)n1,0.38,nt
COc1ccccc1NC(=O)NCC(c1ccco1)N1CCCCC1 (centres undefined),nt,0.8
OCc1nc2ccccc2n1CC(O)COc1ccc(OCc2ccccc2)cc1 (centres undefined),0.26,-0.65
CCOc1ccsc1C(=O)O,-0.23,nt
Cc1onc(-c2ccccc2)c1C(=O)NCc1ccc2c(c1)OCO2,79,0.3
CC1(C)CC(NC2CC(C)(C)NC(C)(C)C2)CC(C)(C)N1,-1.3,-0.75
COc1cccc(NC(=O)CSc2nc3c(sc4ccccc43)c(=O)n2CCN(C)C)c1,7.3,2.5

Structure,Ba CapD inh,AID504770
COC(=O)C1C2C=CC3(CN(Cc4ccco4)C(=O)C13)O2 (centres undefined),nt,-0.1
COC(=O)c1cc2oc3ccccc3c2n1CC(=O)Nc1cc(C)cc(C)c1,1.8,-0.65
O=C1/C(=C/c2c(NCc3ccco3)nc3ccccn3c2=O)SC(=S)N1C1CCCCC1,-0.025,nt
Cc1nc2ccccc2[nH]c1=S,nt,0.65
Brc1ccc2c(ccc[n+]2C/C=C/c2ccccc2)c1,0.36,-0.05
COC(=O)C1=C(C(=O)OC)SC(=C2C(=S)C(C)(C)N(C(=O)c3ccccc3-c3ccccc3)c3cc(C)ccc32)S1,0.11,nt
COc1ccc(-c2ccnc(=S)[nH]2)cc1,0.075,nt
O=C(NCc1ccccn1)C1CCN(Cc2cc3cccc4c3n(c2=O)CCC4)CC1,7.8,nt
Nc1nnc(Cc2ccccc2)s1,0.92,0.85
CCNC(=O)Nc1ccccc1C(=O)N1CCC(c2c[nH]c3ccccc23)CC1,-0.52,nt
COc1cc(OC)c(NC(=O)CN2C(=O)CSc3ncccc32)cc1Cl,-0.79,1.9
O=C1CC(n2nnn(C3CCCCC3)c2=S)C2COC1O2 (centres undefined),-0.28,nt

Structure,Ba CapD inh,AID504770
Cc1cc(N)n2c(nc3ccccc32)c1C#N,nt,0.5
O=C(CC1Sc2ccccc2NC1=O)N/N=C/c1ccccc1O (centres undefined),0.59,nt
Nc1c(C(=O)c2cccs2)oc2nc(-c3cccs3)cc(-c3ccco3)c12,8.6,-0.3
CC(C)(C)c1ccc(Oc2c(C(F)(F)F)oc3c(CN4CCOCC4)c(O)ccc3c2=O)cc1,-0.42,nt
NC(=O)c1cnn2c(-c3cccc(C(F)(F)F)c3)ccnc12,-0.25,2.3
CCN(C(=O)Cn1cnc(S(=O)(=O)N2CCOCC2)c1)c1cccc(C)c1,-0.47,-0.3
O/N=C(\c1ccc(Br)cc1)C1CC1c1ccc(Cl)cc1 (centres undefined),0.3,nt
Cc1cccc2c1[nH]c1nc(=S)[nH]nc12,-0.035,0
COc1ccc(CCNC(=O)OCCc2cccc(Cl)c2)cc1,-0.33,nt
CCCn1c(=O)c(C(=O)Nc2nc(CC(=O)OCC)cs2)c(O)c2ccccc21,-0.89,nt
COc1ccccc1NC(=O)C(CC(C)C)NC(=O)C1CCCCC1 (centres undefined),-0.54,-0.45
CC(=O)Nc1ccc(S(=O)(=O)Nc2cc(C)c(-n3nc4ccccc4n3)cc2O)cc1,-1,1.7

# Next section; it opens with the 3 that closed the last part.
Structure,Ba CapD inh,AID504770
CCCn1c(=O)c(C(=O)Nc2nc(CC(=O)OCC)cs2)c(O)c2ccccc21,-0.89,nt
COc1ccccc1NC(=O)C(CC(C)C)NC(=O)C1CCCCC1 (centres undefined),-0.54,-0.45
CC(=O)Nc1ccc(S(=O)(=O)Nc2cc(C)c(-n3nc4ccccc4n3)cc2O)cc1,-1,1.7
Cc1ccc(NC(=O)CC(=O)Nc2ccc(C)cc2C)c(C)c1,-0.9,1.4
CC1CCCC(NC(=O)c2ccc3c(=O)n4c(nc3c2)CCCCC4)C1C (centres undefined),0.38,0.4
O=C(NCCc1ccccc1)c1c(O)nc2ccccn2c1=O,102,0.2
CN(C)CCCNS(=O)(=O)c1ccccc1Br,0.22,nt
Cc1cccc(C)c1NC(=O)CCCSc1nnnn1C,nt,0.3
CN1C(=O)/C(=C2/C=CC=CN2C)SC1=S,-0.69,-0.5
N#Cc1cc(C(=O)c2cc(Br)ccc2O)cn(-c2ccccc2F)c1=O,-0.64,-0.75
Nc1ccc(OCC(F)(F)F)nc1,16,0.95
CCOC(=O)c1c(F)c(F)c(S(C)(=O)=O)c(F)c1F,-0.49,-0.95
COc1ccc(CN2CCCC(COC(=O)N3CCN(c4ccc(C(F)(F)F)cc4)CC3)C2)cc1OCc1ccccc1 (centres undefined),-0.45,nt
CN(C)S(=O)(=O)c1ccc(N2CCCC2)c(C(=O)OCc2ncc(-c3ccccc3)o2)c1,nt,1.1
O=C(CSCc1ccco1)Nc1ccc(Br)cc1,nt,-0.5

Structure,Ba CapD inh,AID504770
O=C(/C=C/c1ccc(F)cc1Cl)NNC(=O)OCCCc1cccnc1,17,nt
CS(=O)(=O)c1cc2ccccc2oc1=O,11,-0.2
COc1ccc(/C=C2/CC(C(C)(C)C)C/C(=C\c3ccc(OC)cc3OC)C2=O)c(OC)c1 (centres undefined),0.63,0.5
CCCC(=O)Oc1ccc(N(C(=O)CCC)S(=O)(=O)c2ccccc2)cc1,-0.49,2.3
CCn1c(O)c(/C=C/c2nc3ccccc3n2CC)sc1=S,nt,-0.35
N#Cc1cn(C2CCCCC2)c(=O)[nH]c1=O,0.78,0.05
O=C(c1ccc[nH]c1=S)n1ccnc1,2.9,-0.15
N#Cc1c(-c2ccccc2)nc2n(c1=O)CCS2,-0.78,-0.65
CNC(=O)CSc1nncn1-c1ccccc1,nt,-0.4
CN(Cc1cnn(-c2ccccc2)c1)C(=O)C1CCN(c2ccc(-c3cccs3)nn2)CC1,-0.72,-1
Cc1ccc(CN2N=NC3C(=O)NC(=O)C32)cc1 (centres undefined),-0.29,-1.4
CCN=c1sc(C2=c3ccccc3=NC2=O)c(O)n1CC,nt,-0.85

Structure,Ba CapD inh,AID504770
CC1CCc2oc3ccc(NS(=O)(=O)c4cccc([N+](=O)[O-])c4)cc3c2C1 (centres undefined),-0.35,nt
CCOC(=O)N1CCC(NC(=O)c2sc(-n3cccc3)nc2C)CC1,-0.38,1.7
Cc1ccc(NC(=O)Cn2c(=O)oc3cc(S(=O)(=O)N4CCCC4)ccc32)c(C)c1,-0.14,1.1
COC(=O)c1cccn1-c1ccc(Cl)cc1,0.77,nt
C/C(=N\O)c1ccc(O)cc1O,0.64,-0.05
COc1ccc(C2c3sc(=S)[nH]c3SC3C4CCC(C4)C23)cc1 (centres undefined),0.22,0.5
CC1(C)Oc2ccc(/C=C/C(=O)N3CCCCC3)c(O)c2C(N2CCCCC2)C1O (centres undefined),9.9,0.35
O=S(=O)(NC1CCCCC1NC1CCCCC1)c1ccccc1 (centres undefined),24,0.25
CC(NCc1cccc(S(=O)(=O)N(C)C)c1)c1ccc(F)cc1 (centres undefined),nt,0.3
O=C1CCCN1c1ncccn1,-0.17,-1.2
COc1cccc(NC(=O)c2ccc(OC)c(OC)c2)c1,-0.34,-0.65
CCOC(=O)C1=C(c2ccccc2)NC(SC)=C(C#N)C1c1cccnc1 (centres undefined),1.2,nt

Structure,Ba CapD inh,AID504770
CCNC(=O)N(Cc1ccc(Cl)cc1)Cc1cccnc1,0.53,0.45
CCc1ccc(NC(=O)c2cc(=O)n3c(nc4ccccc43)s2)cc1,-0.4,1.2
C=CCNC(=O)c1c(N)n(-c2ccccc2)c2nc3ccccc3nc12,17,1.3
CC(/C=C1\SC(=S)N(CCCC(=O)Nc2cccnc2)C1=O)=C\c1ccccc1,-0.43,0.1
O=c1ccc2c(c1)oc1c(-c3ccccc3)c3ccccc3[nH]c12,nt,1.2
COc1ccccc1NC(=O)CSc1ncccc1C(=O)NCc1ccc(Cl)c(Cl)c1,0.085,nt
Cc1noc(C)c1C(=O)NCc1cc(F)cc2c1OCOC2,1.2,-0.65
O=C(Nc1cccc(Cl)c1)Nc1nncs1,-0.18,0
Cc1ccc(C(=O)CSc2nc3ccccc3c(=O)n2N)o1,-1.3,2.2
CC(O)(CC#N)c1ccccc1 (centres undefined),-0.18,2.1
Cc1ccc2nc(COC(=O)Cn3[nH]c(=O)c4ccccc4c3=O)cc(=O)n2c1,nt,0.1
CCOC(=O)c1oc2ccccc2c1NC(=O)COC(=O)C12CCC(=O)N1c1ccccc1S2 (centres undefined),nt,-0.3

# Some of the entries so far, with two lines to a compound:
# Order of values: Ba CapD inh, AID504770
> C=CCNC(=O)c1c(N)n(-c2ccccc2)c2nc3ccccc3nc12
  17, 1.3
> CC(/C=C1\SC(=S)N(CCCC(=O)Nc2cccnc2)C1=O)=C\c1ccccc1
  -0.43, 0.1
> O=c1ccc2c(c1)oc1c(-c3ccccc3)c3ccccc3[nH]c12
  nt, 1.2

# Continuation.
Structure,Ba CapD inh,AID504770
Cc1cc(=O)[nH]c(SCc2cn3c(C)cc(C)nc3n2)n1,-0.71,1.1
O=C(NCc1ccco1)c1ccc2c(=O)n(C3CCCCC3)c(SCc3cccc(F)c3)nc2c1,-0.02,-0.6
CC(C)=N/N=C(\N)SCc1ccccc1,nt,-0.55
CCN(CC)C(=S)Oc1c(Br)cc(Br)cc1Br,-0.48,nt
CC1(C)SC(=S)N(/N=C/c2ccccc2)C1N(O)C(=O)NC1CCCCC1 (centres undefined),6.3,nt
CCOC(=O)C(Cc1ccc(Cl)cc1)NC(=O)OCCCCCc1ccccc1 (centres undefined),-0.18,nt
CC(C)C(NC(=O)CC12CC3CC(CC(C3)C1)C2)C(=O)O (centres undefined),-0.48,-0.8
Nn1c(Cc2ccccc2)n[nH]c1=S,nt,-0.2
O=C(Oc1cccc2[nH]ccc12)c1ccc(C(F)(F)F)cc1,-0.58,-0.5
COc1ccc(CCNC(=O)CCCn2c(SCC(=O)NCc3ccco3)nc3ccccc3c2=O)cc1OC,-0.14,nt
CCn1c(C)nc2cc(S(=O)(=O)N(C)C)ccc21,-0.065,0.7
CC(C)c1ccc(OCC(=O)N2CCCc3ccccc32)cc1,0.77,-1

Structure,Ba CapD inh,AID504770
O=C1CCc2cc(OCc3ccc(Cl)cc3)ccc2O1,1.4,0.9
CCOc1cc(Br)c(C=C2C(=O)N(C)C(=S)N(C)C2=O)cc1OC,0.68,nt
O=C1NC(=O)N(CCC2=CCCCC2)C(=O)/C1=C/c1cnc(-c2ccccc2)nc1,-0.24,-0.6
O=C(OCCN1CCCCC1)c1ccccc1Cl,0.28,-0.15
O=c1c2ccccc2n2c(=S)[nH]nc2n1Cc1ccccc1,nt,-0.45
Cc1c(Cl)cccc1-c1ccc(C(=O)Nc2ccccn2)o1,0.29,-1.1
Cc1ccc(C(=O)OCc2ccccc2)cc1NC(=O)c1ccco1,0.4,-0.25
O=C(Cn1cnc2ccccc2c1=O)NCCC(=O)N1CCN(Cc2ccccc2)CC1,0.25,0.15
CN(C)CCSc1nc2ccccc2n1CCc1ccccc1,nt,-0.45
Brc1ccc2c(c1)CNc1cccnc1O2,3.6,-0.35
Cc1ccnc2nc(C(=O)Nc3ccccc3C(C)(C)C)nn12,nt,-0.35
S=c1oc(COc2ccccc2Cl)nn1CN1CCOCC1,nt,0.45

Structure,Ba CapD inh,AID504770
CC(=O)C1=NN(c2ccccc2)C2(S1)SC(c1ccc(C)cc1)(c1ccc(C)cc1)c1ccccc12 (centres undefined),-0.045,nt
COc1cc(/C=C2\C(=O)N(c3ccc(S(N)(=O)=O)cc3)N=C2C)ccc1OCc1ccccc1,-0.46,nt
CCOC(=O)COc1nc(-c2ccccc2)cc(C(F)(F)F)c1C#N,27,0.8
CCCn1c(=O)n(C)c(=O)c2c3oc(=O)c(NC(=O)c4ccccc4)cc3[nH]c21,nt,-0.6
Cc1ccc(N2CC(C(=O)Nc3nnc(SCC(=O)NCc4ccco4)s3)CC2=O)cc1C (centres undefined),nt,0.2
CCc1cn[nH]c1-c1c(F)cccc1F,0.72,-0.55
Nc1ccc(-c2nnc3n2CCCCC3)cc1,-0.38,nt
CC(C)Cc1ccc(C2=CC(c3ccc(C#N)cc3)C(C(N)=O)C(=O)N2)cc1 (centres undefined),-0.66,-0.55
Cc1noc(C)c1NC(=O)NC1Cc2ccccc2C1,0.14,-0.7
CCOC(=O)COc1ccc(-c2nccc(-c3ccc(Cl)cc3)n2)cc1,0.13,nt
Cc1cc(-c2onc(C)c2COC(=O)N2CC=C(n3c(=O)[nH]c4ccccc43)CC2)no1,0.58,nt
O=C(O)CSCC(=O)N1CCC(Cc2ccccc2)CC1,-0.34,nt
O=C(CCn1ccc2cc(S(=O)(=O)N3CCCCC3)ccc21)N1CCc2ccccc2C1,0.95,0.35
N#Cc1cnn(-c2ncnc3sc4c(c23)CCCC4)c1N,1.1,-0.35
COc1ccc(N=Cc2cn(-c3ccccc3)nc2-c2ccccc2)cc1,0.1,0.1

# No new results follow: entries from further up.
Structure,Ba CapD inh,AID504770
N#Cc1cnn(-c2ncnc3sc4c(c23)CCCC4)c1N,1.1,-0.35
COc1ccc(N=Cc2cn(-c3ccccc3)nc2-c2ccccc2)cc1,0.1,0.1

# Screens from PubChem.
